# Screening data from PubChem.
# RE007 growth inh – less growth of the S. pombe RE007 Vpr strain; S. pombe RE007 Vpr strain, BacTiter-Glo ATP luminescence, 24 h; control for the full effect not named in the record; Potency, µM (highest dose often 92.2 µM), for the others: at the highest dose activity change, negative = less growth; 360,000 tested, 0.21% active; AID 651644; active = well fitted falling curve with a large enough effect; inconclusive = small, poorly fitted or top-dose-only effect; inactive = no such curve, though single readings can be large or run the other way;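 also: % is scaled to controls: 0 for no effect and ±100 for the full control effect; nearly all actives have a fitted effect of over 50% in size; the assay follows cell death caused by Vpr and the record does not say whether a fall means rescue or toxicity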
#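 Fission yeast strain RE007, carrying one chromosomally integrated HIV-1 vpr copy, was seeded at OD 0.01 in PMG+AL medium with 23 nL pinned compound. After 24 h at 30 °C and 99% humidity, viability was read by BacTiter-Glo luminescence.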
# Cruzain inh Det – blocks cruzain activity in presence of Triton detergent. P25779. purified cruzain, Z-FR-AMC fluorescence, 0.01% Triton. Potency, µM, inactives show max response, negative = inhibition, most hits filed as inhibitors. 200,000 tested, 0.43% active;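 also: plate controls were neutral wells for no effect and buffer without enzyme for full effect; nearly all actives have a fitted effect of over 40% in size; top concentration of the series not given in the record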
# Target sequence (P25779 123-467 limits assumed): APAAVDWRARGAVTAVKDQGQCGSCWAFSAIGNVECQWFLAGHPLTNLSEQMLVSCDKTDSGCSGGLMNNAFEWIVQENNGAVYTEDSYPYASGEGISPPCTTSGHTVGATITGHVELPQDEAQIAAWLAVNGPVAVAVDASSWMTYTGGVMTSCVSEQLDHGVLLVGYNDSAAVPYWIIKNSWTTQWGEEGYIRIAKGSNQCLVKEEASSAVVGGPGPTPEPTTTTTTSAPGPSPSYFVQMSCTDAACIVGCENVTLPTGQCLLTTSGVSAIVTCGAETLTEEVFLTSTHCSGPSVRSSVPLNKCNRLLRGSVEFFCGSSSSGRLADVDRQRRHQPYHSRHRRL
#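 Z-FR-AMC hydrolysis (2 uM substrate) by cruzain (1.5 nM) monitored kinetically at ex 360/em 450 nm after 15 min room-temperature compound exposure; 0.01% Triton X-100, pH 5.5, 5 mM DTT.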
# MARV entry inh – Marburg virus entry inhibition. 300,000 tested, 1.8% active. Potency, µM (doses to about 37.8 µM), for the others: top-dose activity change, negative = inhibition, hits mostly inhibitors. Marburg virus pseudotyped entry inhibition, cell reporter; control for the full effect not named in the record; about a third of the inactives were read at about 46 µM. AID 540276; active = well fitted inhibition curve with a large enough effect; inconclusive = small, poorly fitted or top-dose-only effect, or effect the other way; inactive = flat fitted curve, though single readings scatter; tested in HEK293 cells; about a fifth of its hits are not listed in these tables; also: % is scaled to controls: 0 for no effect and ±100 for the full control effect; luciferase read-out
# 2A StopGo – FMDV 2A StopGo reporter, luciferase signal. Potency, µM (titrated, usually from 57.9 µM), for inactives: at the highest dose signal change, negative = less light. 410,000 tested, 1.2% active. AID 1159524. human cells with a luciferase reporter of 2A StopGo recoding; control for the full effect not named in the record; active = well fitted falling curve with a large enough effect; inconclusive = small, poorly fitted or top-dose-only effect; inactive = no such curve, though single readings can be large or run the other way; tested in HEK293T cells; also: % is scaled to controls: 0 for no effect and ±100 for the full control effect; nearly all actives have a fitted effect of over 45% in size; luciferase light after 4 h
# LASV entry inh – Lassa virus entry inhibition. Lassa virus pseudotype entry inhibition, cell reporter; control for the full effect not named in the record. Potency, µM (series often up to 37.9 µM), without a hit: at the highest dose activity change, negative = inhibition, usual class: inhibitors. 300,000 tested, 1.2% active; active means well fitted inhibition curve with a large enough effect; inconclusive means small, poorly fitted or top-dose-only effect, or effect the other way; inactive means flat fitted curve, though single readings scatter; tested in HEK293 cells; also: % is scaled to controls: 0 for no effect and ±100 for the full control effect; nearly all actives have a fitted effect of over 50% in size; luciferase read-out
# SARS PLP yeast – blocks SARS-CoV papain-like protease in a yeast assay; S. cerevisiae expressing SARS-CoV PLpro, growth rescue; control for the full effect not named in the record; Potency, µM (doses to about 32.9 µM), inactives show at the highest dose activity, positive = growth rescue; 330,000 tested, 0.19% active; AID 485353; active means well fitted rising curve with a large enough effect; inconclusive means small, poorly fitted or top-dose-only effect; inactive means no such curve, though single readings can be large or run the other way; also: 0% is about no effect; nearly all actives have a fitted effect of over 55% in size; growth read by luminescence after 48 h
# Cruzain noTriton – cruzain (T. cruzi) inhibition without detergent | 200,000 tested, 2.3% active | Potency, µM, without a hit: max response, negative = inhibition, actives largely listed as inhibitors | P25779 | purified cruzain, Z-FR-AMC fluorescence, no detergent;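 also: plate controls were enzyme without inhibitor for no effect and buffer without enzyme for full effect; nearly all actives have a fitted effect of over 40% in size; top concentration of the series not given in the record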
#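 Purified cruzain at 1.5 nM, pre-incubated 15 min with compound at room temperature in 100 mM sodium acetate pH 5.5, 5 mM DTT, 0.00005% Triton X-100. Reaction started with 2 uM Z-FR-AMC; AMC fluorescence increase over 60 s gives rate.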
# NS1 function inh – inhibitors of influenza NS1 protein function; S. cerevisiae slowed by influenza A NS1, growth recovery by OD600; Potency, µM (doses to about 46.1 µM), for inactives: at the highest dose activity, positive = more growth; 270,000 tested, 0.4% active; active means well fitted rising curve with a large enough effect; inconclusive means small, poorly fitted or top-dose-only effect; inactive means no such curve, though single readings can be large or run the other way; also: nearly all actives have a fitted effect of over 50% in size
#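 Recovery from NS1-induced slow growth read by OD600 in budding yeast switched to galactose assay medium (pH 6.0, -URA) at 1:100 dilution. Compound 23 nl per well; the matching strain lacking NS1 serves as control.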
# * = called active by the depositor; u = inconclusive; x = no result given; & = joins results of further samples; [ ] = remark or other dose. Unless noted, calls follow the shape of the dose curve; as a rule, active = well fitted curve in the direction sought with a large enough effect; inconclusive = small, poorly fitted or top-dose-only effect, or another doubt; inactive = no such curve, though single readings can be large; an effect the other way counts as inactive or inconclusive. Potency is read from the fitted curve at half-maximal effect.
# Start of the listing, in advance (three entries):
compound	RE007 growth inh	Cruzain inh Det	MARV entry inh	Cruzain noTriton	2A StopGo	LASV entry inh	SARS PLP yeast	NS1 function inh
COc1ccccc1Cn1cc(C(=O)c2ccc(C)cc2)c(=O)c2cc(F)cc(F)c21	x	2.0%	-14.5%[46.1 µM]	16.2%	1.6%	10.6%[46.1 µM]	x	x
Cn1c(SCc2nc3ccccc3n2CCO)nc2ccccc21	-15.7%	0.4%	-19.6%	3.9%	-12.9%	-14.0%	-2.7%	-3.7%
O=C(C1=C(O)C(=O)N(Cc2ccco2)C1c1cccs1)c1cccs1 (stereo not given)	46.1%	-5.6%	3.1%	-17.8%	97.4%[activator]	9.9%	5.0%	1.6%

# The listing, from the start:
compound	RE007 growth inh	Cruzain inh Det	MARV entry inh	Cruzain noTriton	2A StopGo	LASV entry inh	SARS PLP yeast	NS1 function inh
COc1ccccc1Cn1cc(C(=O)c2ccc(C)cc2)c(=O)c2cc(F)cc(F)c21	x	2.0%	-14.5%[46.1 µM]	16.2%	1.6%	10.6%[46.1 µM]	x	x
Cn1c(SCc2nc3ccccc3n2CCO)nc2ccccc21	-15.7%	0.4%	-19.6%	3.9%	-12.9%	-14.0%	-2.7%	-3.7%
O=C(C1=C(O)C(=O)N(Cc2ccco2)C1c1cccs1)c1cccs1 (stereo not given)	46.1%	-5.6%	3.1%	-17.8%	97.4%[activator]	9.9%	5.0%	1.6%
CCOc1cccc2sc(=NC(=O)c3ccco3)n(CC(=O)OC)c12	-10.6%	x	u	x	0.0%	-26.8%[46.1 µM]	0.5%	-3.3%
O=C(Nc1ccccc1)NC1(C(=O)NCc2cccs2)CCCCC1	-1.0%	1.8%	1.7%	u	x	-1.1%	4.5%	-2.2%
O=C(O)C1=CCNCC1	4.5%[18.4 µM]	2.6%&5.1%&-0.2%	u	-8.0%&-9.1%&-7.3%	-7.3%&-3.9%&-8.2%&-12.9%	-28.3%	x	-3.1%
COc1cc(NC(=O)CC(C)S(=O)(=O)c2cc3c4c(c2)CCN4C(=O)CC3)cc(OC)c1 (stereo not given)	x	2.9%	x	-5.4%	-19.0%	-1.1%[46.1 µM]	x	x
COc1cc(C(=O)NCC(=O)N2CC=C(c3ccccc3)CC2)cc(OC)c1OC	3.3%	x	-27.7%	x	-26.7%	2.7%	-0.1%	x
COc1ccc(NS(=O)(=O)c2cccc(C(=O)NNC(=O)c3ccccc3OC)c2)cc1	-5.7%	x	-16.3%	x	7.8%	5.7%[46.1 µM]	0.7%	x
N#Cc1c(-c2ccco2)nc(SCc2ccc(F)cc2)[nH]c1=O	-0.2%	-7.1%	-17.7%	0.0%	-24.6%	0.9%	2.2%	-1.4%
CCc1c(C)sc2c1CCN(Cc1ccccc1F)C2c1ccccc1 (stereo not given)	x	-8.8%	x	-2.7%	u	u	x	x
COc1ccc(C(=O)Nc2ccccc2C(=O)Nc2cc(C)ccn2)cc1	-27.9%	x	-11.5%	x	0.0%	15.3%	-10.5%	1.6%
CCOc1cccc2sc(N(CCN(C)C)C(=O)/C=C/c3cccs3)nc12	-5.2%	x	u	x	u	u	5.0%	-12.8%
O=C(O)c1ccn(COc2ccc(Br)cc2)n1	7.5%	x	u	x	-9.2%	0.4%	0.2%	x
Cc1ccc(CNC(=O)C(=O)NCC2OCCN2S(=O)(=O)c2cccs2)cc1 (stereo not given)	17.5%	-1.0%	17.4%	1.4%	-23.3%	-24.6%	14.3%	8.4%
Cc1[nH]c(=O)[nH]c(=O)c1S(=O)(=O)N1CCCC(C(=O)N2CCC(Cc3ccccc3)CC2)C1 (stereo not given)	-4.7%	-4.0%	x	u	-9.4%	x	3.3%	-9.7%
CCOC(=O)c1ccccc1NC(=O)c1c(C)oc2ncnc(N3CCOCC3)c12	x	-1.4%	x	2.9%	-25.4%	3.3%[46.1 µM]	x	x
CC(C)n1c(C(=O)OCC(=O)NCc2ccc3c(c2)OCO3)cc2occc21	1.5%	-7.1%	u	6.8%	x	-17.7%	-4.6%	-43.5%
Cc1ccc(-c2cc(N)n3nc(-c4ccc(C)cc4)cc3n2)cc1	-11.8%	-1.3%&1.9%	4.3%&4.3%	u	-5.4%&-11.2%	-9.0%[46.1 µM]	-0.8%	16.0%
COc1ccc(CNC(=O)C2CC(C)=C(C)CC2C(=O)O)cc1OC (stereo not given)	2.6%	x	u	x	0.2%	-14.0%[46.1 µM]	4.2%	2.7%
CCN(C(=O)c1cc(S(=O)(=O)N2CCCC2)cn1C)c1ccc(OC)cc1	x	-7.9%	x	2.7%	54.0%[activator]	-12.4%[46.1 µM]	x	x
CS(=O)(=O)N(CC(=O)NC1CC1)c1cccc(F)c1	1.9%	3.5%	54.5%	-19.9%	-9.2%	10.6%	-5.2%	1.8%
CC(C)(C)NC(=S)N1CCC(C(=O)c2ccc(Cl)cc2)CC1	4.5%	x	u	x	2.7%	20.0%	2.8%	-1.5%
COc1ccc(C(=O)NNC(=S)NC(=O)c2ccco2)cc1	5.8%	1.6%	-25.7%	0.6%	-9.3%	-15.1%	-29.7%	-141.6%
CN(C(=O)CSc1nnc(-c2cccs2)o1)C1CCS(=O)(=O)C1 (stereo not given)	-1.1%	x	13.1%[46.1 µM]	x	6.7%	20.3%[46.1 µM]	-3.9%	x
O=C(COc1ccccc1)NNC(=O)c1cccs1	-2.3%	-1.2%	0.2%	1.2%	21.2%	-0.6%	-13.7%	-1.2%
CCOC(=O)C1C(c2cccc([N+](=O)[O-])c2)C2C(=O)NN=C2CC1(C)O (stereo not given)	-3.7%	x	-12.7%[46.1 µM]	x	-4.1%	2.1%[46.1 µM]	-4.0%	x
O=C(Nc1ccc(CN2CCOCC2)cc1)c1ccc(Cl)cc1	-11.9%	x	x	x	4.2%	x	6.0%	-4.9%
Cc1ccc(-c2c(C)n([O-])c3c([n+]2=O)CCCC3)o1	2.8%	-0.2%	-11.3%[46.1 µM]	-3.3%	-2.2%	3.3%	-6.0%	-4.7%
CCc1c2ccccc2nn1-c1ccccc1C(=O)C(C)=O	-6.8%	x	17.6%[46.1 µM]	x	-3.4%	-28.3%[46.1 µM]	-0.3%	10.0%
Cc1ccc(C2(c3ccc(C)cc3)CC2C(=O)NC(C)C)cc1 (stereo not given)	5.2%	x	12.6µM*	x	-13.0%	-3.2%[46.1 µM]	-2.1%	-2.7%
COc1cc(CCC(C)=O)ccc1OC(=O)c1c(F)cccc1Cl	-12.4%	x	u	x	44.0%[activator]	u	-2.5%	-4.9%
O=C(CN1C(=O)/C(=C/c2ccccc2)SC1=S)NC1C=CS(=O)(=O)C1 (stereo not given)	10.0%	x	-28.8%[46.1 µM]	x	-9.8%	-11.8%[46.1 µM]	14.4%	-2.3%
COc1cccc(-c2nc(SCC(=O)NC3CCCC3)c(-c3ccccc3)[nH]2)c1	x	-4.4%	-3.5%[46.1 µM]	3.6%	0.0%	-18.0%[46.1 µM]	x	x
Cc1c(C(=O)NN2CCOCC2)cccc1[N+](=O)[O-]	-11.1%	x	6.4%	x	-2.3%	-6.3%	x	x
Cc1cc(NC(=O)c2cc(C(C)C)on2)nn1Cc1ccc(Cl)cc1	8.2%	-6.9%	-0.8%	-5.1%	-27.9%	x	-19.7%	-48.6%
Cc1ccc(NC(=O)CN(C)C(=O)Cc2ccccc2F)cc1	-12.0%	x	-5.8%[46.1 µM]	x	12.1%	-9.0%[46.1 µM]	-0.1%	-0.3%
N#CC1C=Cc2c(ccc3ccccc23)N1C(=O)c1ccccc1 (stereo not given)	u	x	u	x	u	u	x	x
CCOC(=O)c1ccc(NC(=O)CN2CCN(C(=O)C3CCCO3)CC2)cc1 (stereo not given)	8.1%	x	u	x	-5.5%	3.2%	-3.9%	-6.6%
CCOC(=O)c1ccc(NC(=O)Cn2nnc(-c3ccccc3)n2)cc1	23.2%	2.0%	3.6%	-11.4%	8.7%	4.1%	0.5%	-2.5%
CCOc1cccc(C2c3c(oc4ccc(F)cc4c3=O)C(=O)N2c2cc(C)ccn2)c1 (stereo not given)	x	7.0%	-9.0%[46.1 µM]	8.2%	-6.2%	11.2%[46.1 µM]	x	x
CSCCC1NC2(C(=O)Nc3c(Cl)cccc32)[C@@H]2C(=O)N(C3CCCC3)C(=O)[C@H]12 (stereo not given in full)	8.1%	-1.1%	-25.2%	-11.1%	-14.7%	12.6%	-0.9%	-8.7%
O=C(Nc1ccccc1N1CCN(c2ccccc2)CC1)C12CC3CC(CC(C3)C1)C2	5.9%	4.8%	-5.1%	25.1µM*	u	u	-0.4%	8.5%
CCCc1n[nH]c(=O)[nH]1	-15.8%	3.6%	u	-14.1%	-7.1%	4.7%	3.5%	-0.4%
CCOC(=O)c1ccc(N2C(=O)c3n[nH]c(-c4ccco4)c3C2c2ccc(OC)cc2OC)cc1 (stereo not given)	x	-5.6%	u	-22.6%	u	u	x	x
Cc1c(Cl)cccc1NC(=O)CSc1nncn1-c1ccccn1	14.8%	x	u	x	-10.7%	-3.9%[46.1 µM]	0.0%	u
CCOC(=O)c1cn[nH]c1NC(=S)Nc1ccc(Cl)cc1	-8.6%	x	u	x	-45.8%	u	-2.5%	-9.8%
O=S(=O)(c1ccc(OCC(O)CN2CCN(c3ccccc3)CC2)cc1)N1CCOCC1 (stereo not given)	0.3%	1.2%	-23.5%	-5.1%	x	u	u	-2.4%
CCCS(=O)(=O)Nc1cc(-c2cn3ccc(C)cc3n2)ccc1C	x	6.0%	u	7.0%	26.6%	u	x	x
COc1ccc(S(=O)(=O)N(C(=O)c2ccncc2)c2ccc3oc(C)c(C(C)=O)c3c2)cc1	x	-6.5%	u	u	-15.2%	u	x	x
